# Compound activity: PubChem, National Center for Advancing Translational Sciences (NCATS)
# Menin MLL FP TR – displaces Texas Red mutant MLL peptide from human menin; Menin + Texas Red MLL mutant peptide, fluorescence polarization; Potency, µM (series often up to 61.6 µM), for inactives: at the top dose FP activity change, negative = inhibition, usual class: inhibitors; actives 0.23% (n = 270,000); AID 1768; active = well fitted inhibition curve with a large enough effect in the polarisation, with a control signal flat, not every such curve was filed as active; inconclusive = small, poorly fitted or top-dose-only effect, or effect the other way, or a change in a side signal; inactive = no such curve, though single readings can be large or run the other way; the % refers to the polarisation; note: potency is the fitted concentration of half-maximal effect; % of control where 0% means no effect; many of its hits are not listed in these tables
# Giardia kill – Giardia lamblia killing | Giardia lamblia trophozoite viability | activity change, % at 7.66 µM, hits read low | actives 0.15% (n = 340,000); in the data active = activity change below about -80%; inconclusive = between about -30% and that limit;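 note: parasites exposed to compound for two days anaerobically before the ATP read; % is set by controls: 0 for no effect and ±100 for the full control effect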
#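 Each well holds 100 Giardia trophozoites and compound. After two days (48 hrs) at 37 deg C in anaerobic conditions, ATP is quantified by luminescence.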
# PKM2 act – PKM2 (human) enzyme activation | P14618 | purified PKM2, Kinase-Glo ATP luminescence, activation; response scale: 0% is enzyme alone, no compound | AID 1631 | Potency, µM (series often up to 57.5 µM), without a hit: at the highest dose activation, usual class: activators | actives 0.34% (n = 260,000); note: potency is the fitted concentration of half-maximal effect; % is set by controls: 0 for no effect and ±100 for the full control effect; nearly all actives have a fitted effect of over 55% in size
#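 Purified hPK-M2 (>95%) run at intermediate activity with 0.1 mM ADP and 0.5 mM PEP in 50 mM imidazole pH 7.2, KCl, MgCl2; 1 h room temperature. ATP formed read by Kinase-Glo luminescence; normalized to uninhibited and no-enzyme controls.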
# TSG101-PTAP inh – blocks PTAP/TSG101 interaction to inhibit HIV-1 budding. Q99816. Fluorescence polarization, FITC-PTAP peptide / Tsg101 binding. Potency, µM (doses to about 115 µM), for inactives: top-dose activity change, negative = inhibition, hits mostly inhibitors. 340,000 tested, under 10 active. AID 493005; active = well fitted inhibition curve with a large enough effect in the main read-out, with a control signal flat, not every such curve was filed as active; inconclusive = small, poorly fitted or top-dose-only effect, or effect the other way, or a change in a side signal; inactive = no such curve, though single readings can be large or run the other way; note: potency is the fitted concentration of half-maximal effect; % of control where 0% means no effect
#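 FP read-out: FITC-PTAP peptide, 50 nM final, binding Tsg101 binding domain, 10 uM final; 20 min, r.t.; 10 mM HEPES pH 7.5, 0.15 M NaCl, 0.01% Tween 20, 3 mM EDTA, 0.1 mM TCEP.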
# Tb PFK block – inhibitors of T. brucei phosphofructokinase | AID 485367 | actives 0.17% (n = 330,000) | O15648 | T. brucei PFK, ADP-Glo luminescence | Potency, µM (top dose mostly 57.5 µM), for the others: at the top dose activity, negative = inhibition, actives largely listed as inhibitors;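 note: potency is the fitted concentration of half-maximal effect; 0% = uninhibited 1x PFK enzyme wells and -100% = no-enzyme wells; nearly all actives have a fitted effect of over 60% in size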
# Target sequence (O15648 whole entry, looked up): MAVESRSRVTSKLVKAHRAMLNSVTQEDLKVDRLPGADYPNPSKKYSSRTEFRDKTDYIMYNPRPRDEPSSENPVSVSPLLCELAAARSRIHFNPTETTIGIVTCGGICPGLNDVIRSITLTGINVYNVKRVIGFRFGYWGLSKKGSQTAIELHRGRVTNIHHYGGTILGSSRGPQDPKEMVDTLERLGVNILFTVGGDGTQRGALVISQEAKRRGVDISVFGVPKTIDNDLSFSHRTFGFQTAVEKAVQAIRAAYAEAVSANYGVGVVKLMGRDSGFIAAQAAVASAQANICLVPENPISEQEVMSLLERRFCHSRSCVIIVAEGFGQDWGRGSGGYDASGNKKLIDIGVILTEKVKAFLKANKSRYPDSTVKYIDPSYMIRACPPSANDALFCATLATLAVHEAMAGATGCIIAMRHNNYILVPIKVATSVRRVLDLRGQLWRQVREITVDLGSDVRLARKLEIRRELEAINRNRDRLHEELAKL
#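 1.25 nM PFK with 0.5 mM F6P and 0.1 mM ATP in 0.1 M TEA pH 8.0, 5 mM MgCl2, incubated 45 min at room temperature; ADP measured by ADP-Glo luminescence; compounds titrated up to 57 uM.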
# Chronic BCR inh – blocks chronic active B-cell receptor signaling | ABC-DLBCL IkBa-CBG/CBR reporter, luminescence ratio, 4 h | Potency, µM (highest dose often 46.1 µM), for inactives: at the top dose ratio change, negative = lower green/red ratio, actives largely listed as inhibitors | actives 0.05% (n = 340,000); active = well fitted inhibition curve with a large enough effect in the signal ratio, with a control signal flat, not every such curve was filed as active; inconclusive = small, poorly fitted or top-dose-only effect, or effect the other way, or a change in a side signal; the % refers to the signal ratio;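 note: potency is the fitted concentration of half-maximal effect; plate controls were basal doxycycline-induced cells for no effect and cells given 10 µM MG132 for full effect; MG132 reads +100%, hits lower the ratio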
#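 TMD8 ABC-DLBCL cells carrying doxycycline-inducible green luciferase fused to IkappaBalpha plus unfused red luciferase were exposed to compounds (up to 46 uM) for 4 hrs at 37C. Activity came from the overlap-corrected green/red luminescence ratio.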
# Coupling enz – inhibits coupling enzyme system, counter-screen for aldolase hits; coupling enzyme system counterscreen, AmpLite Red fluorescence; activity change, negative = inhibition, % at 58.2 µM, hits read low; actives 0.67% (n = 290,000); AID 2472; in the data active = activity change below about -30%; note: % is set by controls: 0 for no effect and ±100 for the full control effect
#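 First, compound is pin-transferred into glyceraldehyde-3-phosphate coupling-enzyme reagent at 57.5 uM final and held 10 min at RT. Next, substrate, coupling system and AmpLite Red are added. After 20 min RT, fluorescence (525/598 nm) is read.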
# GALK inhibitor – blocks human galactokinase activity; AID 1868; Purified GALK, Kinase-Glo residual ATP luminescence; Potency, µM (series often up to 57.5 µM), without a hit: at the top dose activity change, negative = inhibition, hits mostly inhibitors; P51570; actives 0.007% (n = 270,000); note: potency is the fitted concentration of half-maximal effect; % is set by controls: 0 for no effect and ±100 for the full control effect
# Target sequence (P51570 whole entry, looked up): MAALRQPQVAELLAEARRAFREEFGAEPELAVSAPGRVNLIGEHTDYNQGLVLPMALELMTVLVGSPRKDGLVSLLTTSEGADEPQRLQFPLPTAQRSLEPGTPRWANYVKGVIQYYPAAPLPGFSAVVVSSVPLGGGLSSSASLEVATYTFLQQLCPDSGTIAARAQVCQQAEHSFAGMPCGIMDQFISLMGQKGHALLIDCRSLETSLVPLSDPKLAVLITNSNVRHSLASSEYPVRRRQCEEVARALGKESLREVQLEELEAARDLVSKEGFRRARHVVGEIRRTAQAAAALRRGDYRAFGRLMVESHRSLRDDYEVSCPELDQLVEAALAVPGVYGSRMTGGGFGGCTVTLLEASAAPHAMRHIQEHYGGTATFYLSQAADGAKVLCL
#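 Galactose (100 uM) and ATP (35 uM) were turned over by 5 nM GALK for 1 h at RT. Kinase-Glo Plus then converted the remaining ATP into a luminescent signal.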
# a7 integrin act – integrin-mediated muscular dystrophy alleviation activation; alpha7betagal myoblasts, beta-gal FDG fluorescence, 48 h; Potency, µM (titrated, usually from 38.3 µM), inactives show top-dose activation, usual class: activators; actives 0.064% (n = 350,000);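 note: potency is the fitted concentration of half-maximal effect; 100% = response of the positive control SU9516; nearly all actives have a fitted effect of over 60% in size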
#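 alpha7betagal+/- myoblasts (passage 13, 250/well) treated 48 h at 37C with compounds at 1:260 dilution of DMSO stock. Lysed, then beta-galactosidase activity read as FDG fluorescence (ex 480/em 540) after 30 min, with pre-read for autofluorescence.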
# S-ASM inh – blocks human secretory acid sphingomyelinase | actives 0.006% (n = 340,000) | placental ASM, HMU-PC fluorogenic substrate, 60 min | AID 504937 | Potency, µM (highest dose often 57.5 µM), for inactives: top-dose activity change, negative = inhibition, actives largely listed as inhibitors; note: potency is the fitted concentration of half-maximal effect
#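 Steps: dispense placental human ASM, pin compound, wait 10 min at room temperature, add HMU-PC0 substrate at 9 uM final, incubate 60 min at 37 °C, add stop solution raising pH to 10, read fluorescence.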
# Active calls of the source: *; ? = inconclusive; . = no result given; & = joins results of further samples; [ ] = remark or other dose. Unless noted, calls come from the whole dose curve; as a rule, active = well fitted curve in the direction sought with a large enough effect; inconclusive = small, poorly fitted or top-dose-only effect, or another doubt; inactive = no such curve, though single readings can be large; an effect the other way counts as inactive or inconclusive. The list is partial; count on the stated rates, not on these rows.
SMILES,Menin MLL FP TR,Giardia kill,PKM2 act,TSG101-PTAP inh,Tb PFK block,Chronic BCR inh,Coupling enz,GALK inhibitor,a7 integrin act,S-ASM inh
CC1(C)SC2C(NC(=O)Cc3ccccc3)C(=O)N2C1C(=O)O (centres undefined),-10.4%,.,.,.,.,.,5.6,.,.,.
O=C(NC[C@H]1CCCCN1)c1cc(OCC(F)(F)F)ccc1OCC(F)(F)F,5.0%[24.8 µM],.,.,.,.,.,-0.9,.,.,.
CCCCN(CCCC)CCC(O)c1cc2c(Cl)cc(Cl)cc2c2cc(C(F)(F)F)ccc12 (centres undefined),-7.0%[24.8 µM],?,.,0.4%,-7.0%,-16.0%,-3.3,.,.,?
Brc1ccccc1-c1ccccc1,.,-15.8,.,-0.6%,4.4%,2.3%,.,.,.,0.5%
C#C[C@]1(OC(C)=O)CCC2C3CCC4=CC(=O)CC[C@@H]4C3CC[C@@]21C (some centres undefined),-20.7%,-20.8,2.4%,-2.0%,0.3%,-15.9%,3.3,.,.,-2.8%
COC1C=CO[C@@]2(C)Oc3c(C)c(O)c4c(O)c(c5c(nc6cc(C)ccn65)c4c3C2=O)NC(=O)/C(C)=C\C=CC(C)C(O)[C@@H](C)C(O)C(C)[C@@H](OC(C)=O)C1C (some centres undefined),-19.5%,.,.,.,.,.,-12.1,.,.,.
CC1(C)SC2C(NC(=O)C(NC(=O)N3CCNC3=O)c3ccccc3)C(=O)N2C1C(=O)O (centres undefined),3.3%,.,.,.,.,.,3.7,.,.,.
O=c1[nH]c(=O)n([C@@H]2C[C@H](O)[C@H](CO)O2)cc1C(F)(F)F,1.3%[24.8 µM],.,.,.,.,.,-2.4,.,.,.
CC(C)(C)NCC(O)CON=C1c2ccccc2-c2ccccc21 (centres undefined),-24.6%,3.1,-12.5%,0.2%,-2.2%,?,-0.8,8.9%,-55.7%[inhibitor],-5.7%
CCCCC[C@H](O)/C=C/[C@@H]1[C@H](C/C=C\CCCC(=O)O)[C@@H](O)C[C@H]1O,-8.2%,.,.,.,.,.,0.1,.,.,.
O=CC(O)C1OC(=O)C(O)C1O (centres undefined),.,20.2,.,0.9%,.,.,.,.,-9.1%,-0.1%
CC12C=CC(=O)C=C1CCC1C2C(=O)CC2(C)C1CCC2(O)C(=O)CO (centres undefined),.,0.0,.,-0.1%,.,.,.,.,.,11.1%
Nc1ncnc2c1ncn2[C@@H]1O[C@H](CO)[C@@H](O)[C@H]1O,2.9%,-6.4,-4.5%,-3.0%,-2.5%,?,-1.5&0.1,.,.,1.5%
C[C@H]1O[C@@H](O[C@H]2[C@@H](O)C[C@H](O[C@H]3[C@@H](O)C[C@H](O[C@H]4CC[C@@]5(C)[C@H](CC[C@@H]6[C@@H]5C[C@@H](O)[C@]5(C)[C@@H](C7=CC(=O)OC7)CC[C@]65O)C4)O[C@@H]3C)O[C@@H]2C)C[C@H](O)[C@@H]1O,-0.4%[24.8 µM],42.3[activator],0.2%&-3.7%,0.6%,4.9%&5.5%,?,4.2&2.0&3.2,3.1%,.,-0.2%
CC(=O)O[C@H]1C(=O)[C@@]2(C)C([C@H](OC(=O)c3ccccc3)[C@]3(O)C[C@H](OC(=O)[C@H](O)[C@@H](NC(=O)c4ccccc4)c4ccccc4)C(C)=C1C3(C)C)[C@]1(OC(C)=O)CO[C@@H]1C[C@H]2O (some centres undefined),10.7%,?,0.4%,-2.5%,1.5%,-8.7%,-4.6,.,-35.3%,-7.2%
Nc1ccc(S(=O)(=O)c2ccc(N)cc2)cc1,3.8%,10.0,-1.1%,1.2%,2.5%,-1.0%,2.7&0.7&1.8,-3.6%,.,-0.5%
NS(=O)(=O)c1cc2c(cc1C(F)(F)F)NCNS2(=O)=O,8.3%,1.3,1.6%,-2.7%,1.6%,-3.7%,5.3&2.8&3.5,1.5%,.,-0.5%
COc1ccc2c(c1OC)C(=O)OC2C1c2c(cc3c(c2OC)OCO3)CCN1C (centres undefined),-11.8%&1.2%&-17.0%,25.3&15.1&-15.5,.,1.2%&-4.2%&-2.0%,-2.1%&-3.0%&3.4%,?,-3.5&4.2,1.1%&2.0%,7.7%,-1.8%&4.8%&4.7%
CC(C)(C(=O)O)c1ccc([C@H](O)CCCN2CCC(C(O)(c3ccccc3)c3ccccc3)CC2)cc1,11.2%,8.0,-5.9%,-1.8%,4.2%,-14.3%,0.9,.,.,-0.4%
COc1ccc2c(c1)c(CC(=O)O)c(C)n2C(=O)c1ccc(Cl)cc1,18.4%,5.1,-1.9%,-1.7%,4.0%,?,20.3&15.3&10.2&23.8&10.9,0.3%,.,-5.3%
Clc1ccccn1,.,-19.4,.,-0.7%,2.0%,-2.1%,.,.,.,0.0%
O=C(Nc1ccccc1C(=O)Nc1nnc(C(F)(F)F)s1)c1ccccc1,.,-18.7,2.2%,-3.4%,0.5%,?,-14.9,-0.6%,-71.7%[inhibitor],-0.1%
CN1CCN(c2c(F)cc3c(=O)c(C(=O)O)cn(CCF)c3c2F)CC1,9.6%&1.0%,.,-1.6%,.,-1.1%,7.8%,1.4,0.4%,.,.
CCCn1c(=O)[nH]c(=O)c2[nH]cnc21,-5.9%&-15.6%&6.8%,16.4,0.9%,0.4%,-1.1%,-4.9%,-0.4,.,.,12.3%
C#C[C@]1(O)CC[C@H]2[C@@H]3CCC4=CC(=O)CC[C@@H]4[C@H]3CC[C@@]21C,.,-14.8,.,2.7%,.,.,.,.,.,-1.3%
SMILES,Menin MLL FP TR,Giardia kill,PKM2 act,TSG101-PTAP inh,Tb PFK block,Chronic BCR inh,Coupling enz,GALK inhibitor,a7 integrin act,S-ASM inh
NCCc1ccn[nH]1,-2.3%[24.8 µM],-21.7,.,0.3%,-1.5%,2.0%,1.8,.,.,0.8%
CC(C)NCC(O)c1ccc2ccccc2c1 (centres undefined),1.2%&4.1%,7.7,.,-1.6%,-7.1%,-1.7%,-3.8,.,.,1.1%
O=C(/C=C/c1ccc(O)c(O)c1)O[C@@H]1C[C@](O)(C(=O)O)C[C@@H](O)[C@H]1O,.,2.2&-1.1,.,0.7%&-1.7%,-8.7%&-12.9%,-0.2%&-1.4%,.,.,.,-1.5%&-1.7%
C#C[C@]1(O)CCC2C3CCC4=C(CCC(=O)C4)C3CC[C@@]21C (some centres undefined),2.3%,.,.,.,.,.,0.8,.,.,.
COC(=O)CCCC(=O)OC,.,-2.1,.,-0.3%,3.9%,3.5%,.,.,16.2%,0.8%
C#C[C@]1(OC(C)=O)CCC2C3CCC4=CC(=O)CCC4C3CC[C@]21C (some centres undefined),?,.,.,.,.,.,0.8,.,.,.
CCOC(=O)OC(C)OC(=O)[C@@H]1N2C(=O)[C@@H](NC(=O)[C@H](N)c3ccccc3)[C@H]2SC1(C)C (some centres undefined),.,7.8,.,-0.7%,-0.3%,-1.2%,.,.,.,5.0%
CCC1NC(=O)c2cc(S(N)(=O)=O)c(Cl)cc2N1 (centres undefined),.,2.5,.,-0.1%,-4.1%,-0.9%,.,.,.,86.8%[activator]
CC(C)(c1cc(Br)c(O)c(Br)c1)c1cc(Br)c(O)c(Br)c1,.,6.7,.,7.7%,1.0%,?,.,.,.,-3.5%
CN1CCc2cc(Cl)c(O)cc2C(c2ccccc2)C1 (centres undefined),-0.8%,.,.,.,.,.,.,.,.,.
CC1(C)S[C@@H]2[C@H](NC(=O)Cc3ccccc3)C(=O)N2[C@@H]1C(=O)O,7.6%,.,.,.,.,.,.,.,.,.
CC[C@H](CO)NCCN[C@@H](CC)CO,-23.4%[24.8 µM],.,.,.,.,.,3.3,.,.,.
CC1(C)S[C@@H]2[C@H](NC(=O)C(NC(=O)N3CCNC3=O)c3ccccc3)C(=O)N2[C@H]1C(=O)O (some centres undefined),48.2%[activator],2.0,.,-8.9%,-5.7%,-0.2%,0.1,4.7%,-5.2%,8.1%
CC[C@]1(c2ccccc2)NC(=O)N(C)C1=O,0.2%[24.8 µM],.,.,.,.,.,5.0,.,.,.
C[C@]12CC[C@@H]3c4ccc(O)cc4CC[C@H]3[C@@H]1CC[C@@H]2O,6.7%&0.1%&-6.0%&-18.6%,-2.0,-7.7%,11.2%,2.4%,?,-0.1&-2.3&1.6,-1.9%,.,2.3%
CC[C@@]1(c2ccccc2)NC(=O)N(C)C1=O,2.8%,.,.,.,.,.,.,.,.,.
O=C(/C=C/c1ccc(O)c(O)c1)O[C@H]1C[C@@](O)(C(=O)O)CC(O)C1O (some centres undefined),-5.0%,.,.,.,.,.,-4.0,.,.,.
COc1cc(NC(C)CCCN)c2ncccc2c1 (centres undefined),-12.1%,-0.7,.,-0.8%,17.9%,?,-2.9,.,.,8.0%
CC(=O)c1cccc(OCc2cc(C(=O)N(C)C(C)c3ccccn3)no2)c1 (centres undefined),-3.2%,-0.6,-11.0%,0.8%,-0.7%,-3.9%,-0.4,5.9%,-41.3%,0.0%
CC1CCc2cc(F)cc3c(=O)c(C(=O)O)cn1c23 (centres undefined),0.8%&-8.9%,2.6,-2.7%,0.0%,-6.4%,0.9%,-6.7&0.0,-2.4%,.,-0.4%
CC(C)(C)NC(=O)[C@H]1CC[C@H]2[C@@H]3CC[C@H]4NC(=O)C=C[C@]4(C)[C@H]3CC[C@]12C,-0.4%&-19.0%,0.8,-7.1%,0.8%,-0.2%,3.9%,3.1,-0.9%,.,-0.7%
